Assay outcomes from PubChem BioAssay.
MLL AF4-AF9 inh: blocks AF4 peptide binding to human AF9 | AlphaScreen, biotin-AF4 peptide binding to FLAG-AF9 | AID 651704 | hit rate 0.47% among 350,000 | inhibition, % at 10 µM;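 active = every replicate reaching a set inhibition limit, whatever the replicate mean, cut at about 25% in these data; inconclusive = mean inhibition reaches that limit but some replicates miss it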;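 note: 0% = plate neutral control median and 100% = total signal loss; the record names both 10 and 1 µM as test concentration; the first replicate is given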
Target sequence (P42568 whole entry, looked up): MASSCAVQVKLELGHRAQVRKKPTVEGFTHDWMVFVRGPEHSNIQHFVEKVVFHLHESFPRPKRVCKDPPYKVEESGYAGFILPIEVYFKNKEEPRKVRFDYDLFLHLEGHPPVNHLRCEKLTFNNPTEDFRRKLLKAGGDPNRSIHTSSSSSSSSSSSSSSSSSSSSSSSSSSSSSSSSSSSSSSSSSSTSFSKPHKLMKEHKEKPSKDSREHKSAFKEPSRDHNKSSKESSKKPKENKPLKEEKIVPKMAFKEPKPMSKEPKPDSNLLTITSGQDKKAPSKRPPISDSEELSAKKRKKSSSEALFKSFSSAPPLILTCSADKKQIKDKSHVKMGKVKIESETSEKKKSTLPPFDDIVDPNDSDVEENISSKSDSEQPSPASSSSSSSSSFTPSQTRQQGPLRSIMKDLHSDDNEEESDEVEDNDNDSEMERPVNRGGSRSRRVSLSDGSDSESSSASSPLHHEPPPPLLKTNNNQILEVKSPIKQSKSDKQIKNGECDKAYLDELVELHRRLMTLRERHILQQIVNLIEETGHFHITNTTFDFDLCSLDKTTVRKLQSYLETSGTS
ALR H2O2 inh: human ALR oxidase inhibition via reduced H2O2 | P55789 | purified ALR, DTT oxidation, H2O2 HRP-luminol luminescence | inhibition, % (concentration not given with the values) | hit rate 3.8% among 290,000 | AID 485317;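 active = mean and each replicate at 75% or more; inconclusive = only one of the two met; inactive = neither met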;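 note: stock transfer was 7.5 nL into about 7.5 µL; 0% = neutral wells and 100% = wells with inactivated enzyme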
HNF4A DNA FP: change in binding of human HNF4 alpha to DNA | hit rate 0.3% among 360,000 | activity change, % at 10 µM | HNF4a-FITC DNA binding, fluorescence polarization, 1 h | AID 1224865 | P41235; in the data active = activity change above about 30%, passing the limit was not always enough;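 note: controls were the assay level and a saturating level of protein; the project sought stronger binding though the title names inhibitors; some compounds called inactive have numbers as strong as hits; positive values seem to mean higher polarization but the record does not say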
Target sequence (P41235 whole entry, looked up): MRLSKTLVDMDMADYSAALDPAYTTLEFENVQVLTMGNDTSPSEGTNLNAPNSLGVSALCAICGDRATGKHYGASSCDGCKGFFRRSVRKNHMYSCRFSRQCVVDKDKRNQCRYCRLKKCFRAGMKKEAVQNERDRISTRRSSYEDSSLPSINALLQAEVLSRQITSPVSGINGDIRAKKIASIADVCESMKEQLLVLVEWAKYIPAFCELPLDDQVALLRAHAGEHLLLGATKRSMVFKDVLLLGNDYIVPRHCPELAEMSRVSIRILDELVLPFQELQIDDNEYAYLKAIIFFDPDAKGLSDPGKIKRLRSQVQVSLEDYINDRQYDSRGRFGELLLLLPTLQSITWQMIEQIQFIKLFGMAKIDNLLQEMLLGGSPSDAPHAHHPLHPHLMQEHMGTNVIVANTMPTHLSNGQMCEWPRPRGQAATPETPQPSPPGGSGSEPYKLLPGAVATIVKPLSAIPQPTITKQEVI
E coli growth: inhibitors of Escherichia coli growth. OD600 absorbance (no concentration beside the values). OD600, 23 h; hits give low values. hit rate 0.21% among 330,000;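 active = OD600 absorbance below the run mean of sample wells minus 3.6 SD, in any replicate, cut at about 0.56 in these data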;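 note: stock transfer was 300 nL into about 60 µL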
Vif TR-FRET: HIV-1 Vif–A3G interaction blockers – biochemical, TR-FRET, GST-Vif 1-94, biotin-A3G peptide, dose response retest, primary screen (AID 1117319); TR-FRET GST-Vif / biotin-A3G peptide binding; higher % means a stronger effect; test concentration not given here; strong numbers were not always called active; inhibition, %, or IC50 in µM where a hit was titrated; hit rate 0.57% among 260,000;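 active = above the screen mean plus three standard deviations and confirmed in dose response; inconclusive = results disagree or hit not tested in dose response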;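 note: Vif residues 1-94 fused to GST binding biotinylated APOBEC3G peptide 110-148; 0% = full assay without inhibitor and 100% = GST in place of GST-Vif; retest series ran down from 100 µM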
Ecoli rRNA inh: inhibits bacterial ribosomal RNA function over humanized ribosomes; E. coli WT GFP vs humanized-ribosome RFP mutants, fluorescence, 24 h; hits give low values; DMSO median 0, no signal -100; GFP signal change (wild-type ribosome), % (concentration not given with the values); hit rate 1.6% among 350,000;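 active = significant combined selectivity score with lowered wild-type GFP, culture density cut under 30%, mutant RFP and density less affected; inactive = any of these conditions unmet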; note: one replicate is shown; some compounds called inactive have numbers as strong as hits
FGF22 binding: binders of recombinant human FGF22 by thermal shift. Q9HCT0. SYPRO orange fluorescence; percent of sucrose octasulfate shift, DMSO zero. calls only at 9.99 µM. hit rate 1.5% among 340,000. AID 651658;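 active = melting point raised past a set limit in the mean and every replicate; inconclusive = no clear call; three in four hits are not shown here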
Ecoli rRNA inh OD600: further read-out of Ecoli rRNA inh, marked with its call; OD600 change, %; measured here: OD600 growth;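 optical density of the mix in the first replicate; 0 = DMSO median and -100 = no signal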
Ecoli rRNA inh RFP: second read-out of Ecoli rRNA inh, no call of its own (marks repeat the call); RFP signal change, %; measured here: RFP humanized mutant strains;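 first replicate; 0 = DMSO median and -100 = no signal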
* marks the source's active call; other numbers are inactive results; i = inactive; ? = inconclusive; . = no result given; & = joins results of further samples. Not all compounds are listed (hit frequency here may not be typical).

SMILES | MLL AF4-AF9 inh | ALR H2O2 inh | HNF4A DNA FP | E coli growth | Vif TR-FRET | Ecoli rRNA inh | Ecoli rRNA inh OD600 | Ecoli rRNA inh RFP | FGF22 binding
COc1ccc(C(=O)C2CCCN(Cc3ccsc3)C2)cc1OC (stereo unspecified) | -0.2 | -6 | 1.6 | 0.68 | 19% | -7 | -3 | -2.3 | i
CC(=O)OC1N=C(c2ccccc2)c2ccccc2NC1=O (stereo unspecified) | . | -6 | -2.7 | 0.69 | -7% | . | . | . | .
CCC1=CCN(CCc2c(C)[nH]c3ccccc23)CC1 | 5.0 | ? | 2.6 | 0.74 | . | 3 | -1 | -5.4 | i
COc1ccc(C2C(C(=O)N3CCC4(CC3)OCCO4)c3cc(OC)c(OC)cc3C(=O)N2C)cc1 (stereo unspecified) | . | -2 | 3.0 | 0.72 | 3%&1% | . | . | . | .
Cc1c(N=Cc2c(O)n(CCc3ccccc3)c(=O)[nH]c2=O)c(=O)n(-c2ccccc2)n1C | . | -6 | 3.4 | 0.66 | -1%&-4% | . | . | . | .
COC(=O)C1C2c3ccccc3C(c3ccccc32)C1C(=O)OC (stereo unspecified) | -0.4 | -4 | -1.1 | 0.66 | 10% | -3 | 2 | 0.4 | i
C[C@@H]1O[C@@H](O[C@@H]2C=C3CCC4C(CC[C@]5(C)[C@@H](c6ccc(=O)oc6)CC[C@]45O)[C@@]3(C)CC2)[C@H](O)[C@H](O)[C@H]1O (stereo partly specified) | -6.9 | -8 | -1.4 | . | . | . | . | . | i
Cc1ccc(-n2nc(C)cc2NC(=O)COc2cc(C)cc3oc(=O)c4c(c23)CCC4)cc1 | . | 5 | 0.6 | 0.77 | 14% | . | . | . | .
O=C(O)[C@@H]1[C@@H](CO)[C@@H]2Cn3c(ccc(-c4cccnc4)c3=O)[C@H]1N2S(=O)(=O)c1ccccc1F | 0.3 | . | . | . | . | 1 | 0 | -2.0 | i
O=C(C1CCN(c2nc3ccc(Br)cc3s2)CC1)N1CCC2(CC1)OCCO2 | . | -18 | -1.1 | 0.67 | -2% | . | . | . | .
COc1cccc(C(=O)C2CCCN(Cc3cccc4c3OCO4)C2)c1 (stereo unspecified) | 8.2 | -7 | -4.9 | 0.7 | -1% | -2 | -9 | -3.8 | i
O=C1C2CCN(CC2)C1Cc1ccc(OCc2ccccc2)cc1 (stereo unspecified) | -1.4 | 3 | 0.3 | 0.69 | 8% | -9 | -4 | 2.1 | i
N[C@@H](Cc1c[nH]c2ccccc12)c1nnc(SCc2ccccc2F)o1 | . | 15 | 1.1 | 0.65 | -2% | . | . | . | .
O=S(=O)(c1ccc(O)cc1)c1ccc(O)cc1 | -0.8 | . | 0.6 | 0.63 | 9% | 9 | -1 | -1.7 | i
COC1=CC(=O)[C@]2(C=C1OC)OC[C@@H]1Oc3c(ccc4c3C=CC(C)(C)O4)C(=O)[C@@H]12 | -5.4 | -23 | . | . | . | -10 | 0 | -1.9 | i
N#Cc1cccc(-c2ccc([C@@H]3[C@H]4CN(C(=O)Cc5ccccc5)CCCCN4[C@H]3CO)cc2)c1 | -6.2 | . | . | . | . | -45 | -63 | -1.0 | i
CC(C(=O)c1cn(C)c2ccccc12)c1ccccc1 (stereo unspecified) | 7.8 | -2 | -0.4 | 0.7 | 2% | 0 | 1 | 1.0 | i
CC(C)(C)n1nnnc1C(C1CC1)N1CCC2(CC1)C(=O)NCN2c1ccccc1 (stereo unspecified) | 7.7 | . | 9.0 | . | . | -16* | -10.0* | 6.3* | i
COC(=O)C1=C(c2ccc(Cl)c(C(F)(F)F)c2)C[C@@H]2CC[C@H]1N2C(=O)NCc1ccc2c(c1)OCO2 | -0.9 | 27 | -2.0 | . | . | -8 | -18 | -1.5 | i
CC1CC(C)CN(CC(=O)c2ccc(OC(F)F)cc2)C1 (stereo unspecified) | ? | 3 | -0.6 | 0.66 | 15% | 9 | 4 | -0.6 | i
CCOC(=O)C1=C(N)OC2=C(C(=O)CC(C)(C)C2)C12C(=O)Nc1ccccc12 (stereo unspecified) | . | 0 | -2.8 | 0.69 | -3% | 8 | 20 | 0.6 | .
CC1CN(c2ccc([N+](=O)[O-])c3cccnc23)CC(C)N1 (stereo unspecified) | . | 10 | -0.6 | 0.72 | -1% | . | . | . | .
CN(C)C(=O)Oc1cc(=O)n2c3c(cccc13)CCC2 | . | -4 | -3.6 | 0.61 | 3% | . | . | . | .
Cc1nc2c(c(C)nn2-c2ccccc2)c(C)c1CCC(=O)N1CCC2(CC1)OCCO2 | . | -5 | -1.0 | 0.68 | -2% | . | . | . | .
CC(CN1CCOCC1)OC(=O)Cc1ccccc1 (stereo unspecified) | -5.6 | -12 | -3.2 | 0.7 | -4% | -1 | -1 | -0.1 | i
COP(=S)(OC)c1c(C)nn(CCC#N)c1NC(=O)c1ccc(Cl)cc1 | -2.0 | . | 2.4 | 0.69 | . | 1 | 2 | -0.8 | i
CC1CCN(C(=O)CCl)CC1 | -1.7 | 4 | 3.4 | 0.71 | 4% | 5 | 7 | -0.2 | i
CC(C)(O)C1C2OC(=O)C1C1(O)CC3OC34C(=O)OC2C14C (stereo unspecified) | -1.5 | . | 0.5 | . | . | . | . | . | i
O=[N+]([O-])c1ccc(N2CCNCC2)cc1N1CCCCC1 | 7.0 | -10 | 2.5 | 0.65 | . | 7 | 3 | 1.1 | i
COc1ccc(CCn2c(O)c(/C=N/N3CCCCC3)c(=O)[nH]c2=O)cc1OC | . | 10 | -4.5 | 0.71 | . | . | . | . | .
O=C(Cc1cc(=O)[nH]c(=O)[nH]1)N1CCN(CCO)CC1 | -1.3 | . | -7.1 | . | 0% | 9 | 5 | 4.0 | i
COc1cc(CN2CCNCC2)cc(OC)c1OC | -0.4 | 8 | -0.1 | 0.7 | . | 10 | 7 | 3.1 | i
Cc1ccc(-n2c(O)c(/C=N/N3CCOCC3)c(=O)[nH]c2=S)cc1 | -3.4 | . | 9.0 | 0.69 | 19% | 18 | 21 | -6.5 | i
CC(CC(C#N)(c1ccccc1)c1ccccc1)N(C)C (stereo unspecified) | . | . | 2.4 | 0.73 | . | 7 | 11 | 3.0 | i
O=C1NC(=O)C(=Cc2c(Cl)cccc2Cl)C(=O)N1 | -3.0 | . | -4.6 | . | . | 12 | 18 | -0.3 | i
COc1ccc(CC2c3cc(OC)c(OC)cc3CCN2C)cc1OC (stereo unspecified) | 6.4 | -6 | 1.4 | 0.73 | 4% | . | . | . | i
Cc1ccc(OC(=O)N(C)C[C@H]2OCc3cnnn3CCCC(=O)N([C@H](C)CO)C[C@@H]2C)cc1 | -6.0&-1.0&-8.4 | . | -4.5 | . | . | 7&-1 | 12&-2 | 1.9&-0.2 | i
COC(=O)C1=C(c2cc3ccccc3o2)C[C@@H]2CC[C@H]1N2C(=O)NC(C)C | -42 | -1 | -0.8 | . | . | 15 | 9 | 1.0 | i
C/C=C/c1ccc([C@@H]2[C@@H](CO)N3CCCCN(C(=O)Cc4ccncc4)C[C@H]23)cc1 | -12 | . | . | . | . | 4 | -1 | -0.1 | i
COc1ccc(CC(=O)N(C)C2CCCN(Cc3ccccc3F)C2)cc1OC (stereo unspecified) | -5.3 | . | -3.7 | 0.64 | . | 4 | 2 | 1.1 | i
O=C1NC(=O)N(Cc2ccccc2)C(=O)/C1=C/C=C/c1ccco1 | 1.2 | 98* | 42* | 0.71 | ? | 11 | 14 | 6.3 | i
C#C[C@]1(O)CC[C@H]2[C@@H]3CCC4=Cc5nc6nc7ccccc7n6cc5C[C@]4(C)[C@H]3CC[C@@]21C | -3.8 | -6 | 10 | . | . | 27 | -19 | 15 | i
COC(=O)c1c(C)n(Cc2ccccc2)c2ccc(O)cc12 | 2.7 | -96 | -5.1 | 0.72 | . | -32 | -44 | -9.1 | i
CCn1c(P(C)(=O)O)nc2cc(NC(=O)c3ccccc3F)ccc21 | -2.1 | -42 | 2.9 | 0.7 | -5% | 4 | 11 | 7.7 | i
COc1ccc(-c2nc3ccccc3n2OC(=O)N(C)C)cc1 | . | -25 | 1.2 | 0.7 | 43µM* | . | . | . | .

Part of the list above, set out differently.
canonical_smiles,MLL AF4-AF9 inh,ALR H2O2 inh,HNF4A DNA FP,E coli growth,Vif TR-FRET,Ecoli rRNA inh,Ecoli rRNA inh OD600,Ecoli rRNA inh RFP,FGF22 binding
CC(C(=O)c1cn(C)c2ccccc12)c1ccccc1 (stereo unspecified),7.8,-2,-0.4,0.7,2%,0,1,1.0,i
CC(C)(C)n1nnnc1C(C1CC1)N1CCC2(CC1)C(=O)NCN2c1ccccc1 (stereo unspecified),7.7,.,9.0,.,.,-16*,-10.0*,6.3*,i

Next entries follow.
SMILES | MLL AF4-AF9 inh | ALR H2O2 inh | HNF4A DNA FP | E coli growth | Vif TR-FRET | Ecoli rRNA inh | Ecoli rRNA inh OD600 | Ecoli rRNA inh RFP | FGF22 binding
O=C(NN=Cc1ccc(N(CCCl)CCCl)cc1)c1cccnc1 | -1.1 | . | 10 | 0.71 | -4% | -3 | 5 | 1.4 | i
O=C(Cc1ccncc1)N1CCCCN2[C@H](CO)[C@@H](c3ccc(C#CC4(O)CCCC4)cc3)[C@H]2C1 | -3.8 | . | . | . | . | 6 | 9 | 1.4 | i
c1ccc(C2NCCc3[nH]cnc32)cc1 (stereo unspecified) | -6.3 | -12 | -2.8 | 0.64 | -4% | 3 | 14 | -0.3 | i
COc1ccc(C(=O)C2CCCN(C3CSCCSC3)C2)c(C)c1 (stereo unspecified) | 7.1 | -5 | 0.0 | 0.65 | . | -18 | -25 | 2.4 | i
O=C(O)CCn1cc(C=C2C(=O)NC(=S)NC2=O)c(-c2cccc(Br)c2)n1 | -3.5 | 99* | -5.6 | 0.7 | . | 17 | 1 | 5.6 | .
c1ccc(CN2Cc3ccccc3-n3nncc3C2)cc1 | 0.0 | . | 0.4 | . | 1% | -4 | 2 | 2.3 | i
CCCCn1c(O)c(C(CC)=Nc2cccc(C(=O)O)c2)c(=O)[nH]c1=O | . | 0 | -1.4 | 0.76 | 2% | . | . | . | .
O=c1[nH]c(=O)n(-c2cccc(Cl)c2)c(O)c1C=NCCCN1CCOCC1 | . | -4 | 0.1 | 0.7 | 3% | . | . | . | .
COCCCNC(=O)c1c(NC(=O)c2ccccc2Cl)n(Cc2ccccc2)c2nc3ccccc3nc12 | . | -7 | 0.4 | 0.76 | -19%&9% | . | . | . | .
N#Cc1ccc(-c2ccc([C@H]3[C@@H](CO)N4CCCCN(C(=O)Cc5ccccc5)C[C@@H]34)cc2)cc1 | -8.7 | . | . | . | . | -16 | -39 | 19 | i
Cc1cc(C=C2C(=O)NC(=S)NC2=O)c(C)n1C1CCCC1 | -0.7 | 9 | 0.7 | 0.71 | 27% | 6 | 3 | 6.3 | i
C=CC[N+]1(C)C2CCC1CC(O)C2 (stereo unspecified) | -1.3 | -5 | 3.8 | 0.66 | -1% | 27 | 22 | 4.6 | i
O=c1c2ccccc2nc(-c2cccs2)n1-c1cnccn1 | . | -7 | 5.0 | 0.78 | 8% | . | . | . | .

Part of the list above, showing only Ecoli rRNA inh OD600 and MLL AF4-AF9 inh.
compound | Ecoli rRNA inh OD600 | MLL AF4-AF9 inh
O=C(NN=Cc1ccc(N(CCCl)CCCl)cc1)c1cccnc1 | 5 | -1.1
O=C(O)CCn1cc(C=C2C(=O)NC(=S)NC2=O)c(-c2cccc(Br)c2)n1 | 1 | -3.5
N#Cc1ccc(-c2ccc([C@H]3[C@@H](CO)N4CCCCN(C(=O)Cc5ccccc5)C[C@@H]34)cc2)cc1 | -39 | -8.7
c1ccc(CN2Cc3ccccc3-n3nncc3C2)cc1 | 2 | 0.0
O=C(Cc1ccncc1)N1CCCCN2[C@H](CO)[C@@H](c3ccc(C#CC4(O)CCCC4)cc3)[C@H]2C1 | 9 | -3.8
